Screens as filed in PubChem BioAssay.
CapD inh – Bacillus anthracis CapD inhibitors, primary screen, biochemical, fluorescence intensity; purified CapD enzyme, fluorescence intensity read-out; stronger effect = lower value; some hits fall short of the stated cut; CapD gamma-glutamyltranspeptidase (Bacillus anthracis Ames Ancestor); z-score (test concentration not listed); hit rate 0.23% among 140,000;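 active = z-score under -4 in either of two replicates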;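 note: stock transfer was 100 nL into about 40 µL; score is relative to mean and spread of the plate; one replicate is shown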
AID504770 – growth inhibition of E. coli YBA685, primary screen, V. cholerae RctB inhibitors | E. coli YBA685 rctB-dependent plasmid, OD600 growth, 3 h; stronger effect = lower value | z-score (test concentration not listed) | hit rate 0.27% among 130,000 | AID 504770, 2011;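 active = z-score under -2 on both plates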;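 note: wells of about 30 µL received 100 nL stock; score is relative to mean and SD of the test wells; the first replicate is given; strong numbers were not always called active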
* hit, by the source's call; i = inactive; / = no result given.

SMILES	CapD inh	AID504770
COc1ccc(CCN=C(N)Nc2nc(C)cc(C)n2)cc1	/	-0.4
COc1cc(C#N)c2ccc3ccccc3c2c1	46	1.5
Cc1cc2nc(-c3ccc(Cl)nc3)n(Cc3ccc(Cl)cc3)c2cc1C	1.4	/
Cc1ccccc1NC(=S)N1CCC(NC(=O)C(C)(C)C)CC1	/	-1.4
CC(C)C1Cc2c(sc3nc(SCC(=O)O)n(Cc4ccccc4)c(=O)c23)CO1 (centres undefined)	-0.66	-2.5
COc1ccc(-n2ncc(ON3C(=O)CCC3=O)c(Cl)c2=O)cc1	-0.1	/
c1cc2c(cc1CNc1ccc(N3CCOCC3)cc1)OCO2	/	-0.6
O=C(C1Cc2ccccc2CN1C(=O)c1ccccc1)N1CCN(c2ccccc2)CC1 (centres undefined)	/	0.45
COc1ccc(NS(=O)(=O)c2ccc(C(=O)N(C)C)s2)cc1	-1	0.2
COc1ccc(-c2cc(-c3ccccc3)c(C#N)c(S(=O)Cc3ccccc3)n2)cc1 (centres undefined)	0.33	0
CNC(=O)c1cc2c(=O)c3ccccc3oc2nc1C(F)(F)F	1.4	0.45
O=C(O)c1nn(-c2ccc(Cl)cc2)ccc1=O	-1.1	1.1
O=C(Cc1cccs1)Nc1ccc2nc3n(c(=O)c2c1)CCCCC3	1.3	-0.8
COC(=O)c1ccc2c(=O)n(Cc3ccc(C(=O)N4CCC(N5CCCCC5)CC4)cc3)c(=S)[nH]c2c1	0.86	/
Nc1cc(-c2ccc(Cl)cc2)nn1S(=O)(=O)c1ccccc1	-0.51	2.1
Cc1ccc(OC(=O)C2c3ccccc3Oc3ccccc32)cc1C	-0.61	-0.45
CC(O)CNC(=O)C12CC3CC(CC(C3)C1)C2 (centres undefined)	0.09	-0.4
Cc1nn(-c2ccccc2)c2[nH]c(=O)cc(C(F)(F)F)c12	27	-0.65
COc1cc(CCNC(=O)OCC2CC2(Cl)Cl)cc(OC)c1 (centres undefined)	-0.53	/
COC(=O)CCSc1ccc(C(=O)OC)cc1N	79	-0.9
N#CCOC1OCCOC1OCC#N (centres undefined)	/	0.45
Cc1cccc(N2CCN(c3cccc(C)c3)C2c2ccc(Br)cc2)c1	0.1	/
NCCc1c[nH]c2ccccc12	1.5	-0.2
CCn1nnc2cc(C(=O)O)ccc21	/	-0.05
CC1CN(S(=O)(=O)c2ccc(C(=O)Nc3ccccc3-c3nc4ccccc4s3)cc2)CC(C)O1 (centres undefined)	-1	/
O=c1oc2ccc(Br)cc2cc1-c1ccc(S(=O)(=O)N2CCOCC2)s1	/	-0.05
CC1(C)Oc2ccccc2C2CC(c3ccccc3)=NN21 (centres undefined)	/	-0.85
O=C(c1ccccc1)c1nc2ccccc2oc1=O	/	-0.3
Cc1noc(C)c1COc1cccc(C(F)(F)F)c1	/	-0.3
CC(C)(C)C(=O)Cn1nnc(-c2cccc(C(F)(F)F)c2)n1	1.1	-0.1

As a short view, 16 of the compounds above:
SMILES	CapD inh	AID504770
O=C(O)c1nn(-c2ccc(Cl)cc2)ccc1=O	-1.1	1.1
O=C(Cc1cccs1)Nc1ccc2nc3n(c(=O)c2c1)CCCCC3	1.3	-0.8
COC(=O)c1ccc2c(=O)n(Cc3ccc(C(=O)N4CCC(N5CCCCC5)CC4)cc3)c(=S)[nH]c2c1	0.86	/
Nc1cc(-c2ccc(Cl)cc2)nn1S(=O)(=O)c1ccccc1	-0.51	2.1
Cc1ccc(OC(=O)C2c3ccccc3Oc3ccccc32)cc1C	-0.61	-0.45
CC(O)CNC(=O)C12CC3CC(CC(C3)C1)C2 (centres undefined)	0.09	-0.4
Cc1nn(-c2ccccc2)c2[nH]c(=O)cc(C(F)(F)F)c12	27	-0.65
COc1cc(CCNC(=O)OCC2CC2(Cl)Cl)cc(OC)c1 (centres undefined)	-0.53	/
COC(=O)CCSc1ccc(C(=O)OC)cc1N	79	-0.9
N#CCOC1OCCOC1OCC#N (centres undefined)	/	0.45
Cc1cccc(N2CCN(c3cccc(C)c3)C2c2ccc(Br)cc2)c1	0.1	/
NCCc1c[nH]c2ccccc12	1.5	-0.2
CCn1nnc2cc(C(=O)O)ccc21	/	-0.05
CC1CN(S(=O)(=O)c2ccc(C(=O)Nc3ccccc3-c3nc4ccccc4s3)cc2)CC(C)O1 (centres undefined)	-1	/
O=c1oc2ccc(Br)cc2cc1-c1ccc(S(=O)(=O)N2CCOCC2)s1	/	-0.05
CC1(C)Oc2ccccc2C2CC(c3ccccc3)=NN21 (centres undefined)	/	-0.85

(cont.)
SMILES	CapD inh	AID504770
CCN1CCN(CCCNC(=S)Nc2ccc3nc(N4CCN(C)CC4)cc(C)c3c2)CC1	-0.6	0.2
CN(C)c1ccc(/C=C/C=C2C(=O)c3ccccc3C2=O)cc1	5.5	0.25
CCOC(=O)C1=C(CN2CCC(C)CC2)NC(=O)NC1c1cccs1 (centres undefined)	-0.07	-0.15
CN1/C(=C\C(=O)COc2ccc(C(N)=O)cc2)C(C)(C)c2ccccc21	/	0.2
O=C(CC(=O)c1ccccc1)Nc1ccc2c(c1)OCCO2	i	-0.1
O=C1N(CN2CCN(Cc3ccccc3)CC2)c2ccccc2C12OCC(CO)([N+](=O)[O-])CO2 (centres undefined)	-0.54	/
CN(Cc1ccccc1)C(=O)CSc1nnc(-c2ccccc2)o1	/	-0.3
Cc1cc(NCCN)nc2ccccc12	/	-0.5
O=C(c1ccco1)N1CCN(C(=O)c2cc(-c3ccc(F)cc3)no2)CC1	-1.9	2
O=c1oc2cc(OCc3cccc(Cl)c3)ccc2cc1-c1nc2ccccc2s1	-0.11	/
C=CCN1C(=O)/C(=c2\sc3n(c2=O)C(c2ccccc2Cl)C(C(=O)OCC)=C(C)N=3)c2ccccc21 (centres undefined)	-0.26	/
CNC(=O)CSc1nnc2[nH]c(=O)cc(C)n12	/	1.1
COc1cc(NS(=O)(=O)c2ccc(Cl)cc2)c(Cl)cc1Cl	-0.45	/
CC1=NN(c2ccc(Cl)c(C(=O)O)c2)C(=O)/C1=C\c1cc([N+](=O)[O-])c(N2CCOCC2)cc1N1CCOCC1	0.45	/
C=C(C)[C@@H]1[C@H]2OC(=O)[C@@H]1[C@]1(O)C[C@H]3O[C@]34C(=O)O[C@H]2[C@]14C	0.23	/
Cc1ccc(S(=O)(=O)n2c(SCC(=O)Nc3ccc(Br)cc3F)nc3ccccc32)cc1	-0.98	/
COC(=O)CSc1nnc(-c2ccco2)n1Cc1ccco1	/	0
CCOC(=O)c1c(C)n(CCOc2ccc(CC)cc2)c2c1cc(O)c1ccccc12	-0.06	/
COc1ccc(NC(=O)C(c2ccccc2)N(Cc2ccco2)C(=O)Cc2cccs2)cc1 (centres undefined)	0.055	0.85
CSc1nnc(-c2ccc(Cl)cc2Cl)n1Cc1ccco1	9.3	-0.7
COc1cccc(-c2cc(C(=O)N3CCCC3)no2)c1	-0.02	-0.2
COc1ccc2c(c1)sc1nc(-c3ccc(C)o3)c(NC3CCCCC3)n12	0.69	-0.3
CS(=O)(=O)N1CCC(C(=O)NCCN2CCCCCC2)CC1	6.1	-0.3
COC(=O)c1cc(=O)nc2sccn12	11	-1.2
CS(=O)(=O)C1=NN2C(=N)/C(=C\c3ccco3)C(=O)N=C2S1	0.89	-1
CCc1c(C)sc(NC(=O)c2cc3n(n2)C(C(F)(F)F)CC(c2ccc4c(c2)OCO4)N3)c1C#N (centres undefined)	2	/
Cc1ccc(C2=CC(c3ccc(C)cc3)n3c(nc4ccccc43)N2)cc1 (centres undefined)	-0.22	/
O=[N+]([O-])c1ccc(Sc2ccccc2)c(Cl)c1	0.35	/
CCCc1[nH]n(-c2ccc(F)cc2)c(=O)c1C=Nc1ccc(Cl)c(Cl)c1	0.27	/
CCCS(=O)(=O)Nc1cccc(-c2cn3c(n2)SCC3)c1	/	-1.3
O=C(NC1Cc2ccccc2C1)C1CC1	-0.34	/
Nn1c(Cc2ccccc2F)nnc1SCC(=O)N1CCc2ccccc2C1	/	-0.15
O=C1CC2(CCCC2)C(=O)N1CCNc1nccc(C(F)(F)F)n1	6.5	/
COC(=O)C1=C(Nc2ccc(C)cc2)CC(C)(O)C(C(=O)OC)C1c1ccc(Br)cc1 (centres undefined)	-1.5	-0.1
S=C(Nc1cc(Cl)ccc1Cl)N(CCc1ccccc1)CCc1ccccn1	0.49	/
COc1ccc(S(=O)(=O)N2CCCCCC2)cc1C(=O)O	0.07	-1.3
CS(=O)(=O)N1CCC(Cc2ccccc2)CC1	-0.21	-1.9
CCOC(=O)N1CCN(CC(O)COc2ccccc2C(C)C)CC1 (centres undefined)	-0.55	1.3
Cc1ccc(C(=O)Nc2ccc3oc(-c4cccnc4)nc3c2)cc1	/	0.25
c1ccc2oc(-c3cn[nH]c3)nc2c1	-0.52	/
CC(C)N(C(=O)CN1C(=O)c2ccccc2S1(=O)=O)c1ccccc1	0.02	1.8
c1cncc(Cn2cccc2)c1	0.17	/
O=C(O)C(Cc1ccccc1)NS(=O)(=O)c1ccc2[nH]c(=O)c(=O)[nH]c2c1 (centres undefined)	-0.45	-1.4
Cc1ccc(O)c(NC(=O)c2ccc3c(c2)C(=O)N(Cc2ccco2)C3=O)c1	-0.76	-0.2
COCC(C)NCc1ccc(SC)cc1 (centres undefined)	/	-0.1
COC(=O)c1c(F)c(F)c(Oc2ccc(C)cc2)c(F)c1N1CCCC1	0.2	0.05
CCCCCOCC1OC2OC(C)(C)OC2C2OC(C)(C)OC12 (centres undefined)	0.12	/
COC(=O)c1ccc(C)c(NC(=O)c2ccncc2)c1	-1.2	0.4
Cc1nn(C(=O)c2cc(C)n(-c3ccccc3)n2)c(C)c1Br	-0.11	-0.5
CCOC(=O)c1noc2ncnc(NC(C)C)c12	0.57	-0.05

Remaining list, next part.
SMILES	CapD inh	AID504770
CCn1cc(C2=NOC(C(=O)N3CCCC3)C2)c(C)n1 (centres undefined)	-0.76	-1.4
CCN(CCO)CCCC(C)Nc1ccnc2cc(Cl)ccc12 (centres undefined)	-0.06	0.75
Cc1cc(O)c(C=Nc2ccccc2C(F)(F)F)c(=O)o1	/	2
COc1ccc(Br)cc1C1CC(=O)Nc2c1ccc1ccccc21 (centres undefined)	0.86	/
O=C(CSc1ncn[nH]1)N(C1CCCCC1)C1CCCCC1	0.18	-0.8
COc1ccc(OC)c(S(=O)(=O)N2CCc3ccccc3C2)c1	-0.05	-0.35
CC(Sc1nc2cc(Cl)ccc2s1)C(N)=O (centres undefined)	/	-0.55
CCc1nc2sc3c(c2c2nncn12)CCCC3	0.095	1.1
COc1ccc(CCNC2=NCCS2)cc1	-1.3	-1.4
CC(C)(C)NC(=O)CSc1nc2ccccc2c(=O)[nH]1	/	2
CCOC(=O)c1oc2ccccc2c1NC(=O)CN1CCOCC1	/	1.9
CC(C)c1ccc(S(=O)(=O)N2CCN(C(=O)c3ccco3)CC2)cc1	-0.05	-0.25
COc1cccc(C2c3[nH]c4ccccc4c3CCN2C(=O)/C=C\C(=O)O)c1 (centres undefined)	-0.27	/
Cc1nn(-c2ccccc2)c2c1C(C(F)(F)F)(C(F)(F)F)N=C(N(C)C)O2	-0.21	0.45
N#Cc1ccc(S(=O)(=O)N2CCN(c3ccccc3O)CC2)cc1	-0.71	/
O=C(c1ccccc1)N1CCN(C(=O)C2CCCCN2S(=O)(=O)c2ccccc2)CC1 (centres undefined)	/	0.25
CCCC(CC(=O)O)CC(=O)O	1.8	0.15
C=CCN1C(=O)/C(=C2\SC(=S)N(CCC)C2=O)c2ccccc21	-0.09	0.95
NC[C@@H]1O[C@H](O[C@H]2[C@@H](O)[C@H](O[C@@H]3[C@@H](O)[C@H](N)C[C@H](N)[C@H]3O[C@@H]3O[C@H](CO)[C@@H](O)C[C@H]3N)O[C@@H]2CO)[C@H](N)[C@@H](O)[C@@H]1O[C@H]1O[C@H](CO)[C@@H](O)[C@H](O)[C@@H]1O	-0.31	/
O=C(Cn1cnc2ccccc2c1=O)Nc1cccc(Cl)c1	-0.38	0.65
COc1ccc(Br)cc1C1N(c2cccc(C)c2)CCN1c1cccc(C)c1	0.075	/
O=C(NCc1cccnc1)OCc1cccc(Oc2ccccc2)c1	-0.58	/
O=C(O)CCC(=O)N1CC=C(n2c(=O)[nH]c3ccccc32)CC1	0.34	/
O=C(c1cc2ccccc2oc1=O)N1CCCC1	/	-0.35
COc1ccc2c(C(F)(F)F)cc(=O)oc2c1	52	0.1
N#CC1(c2ccc(Cl)cc2)c2ccccc2NN1c1ccccc1 (centres undefined)	0.8	-0.75
COc1ccc(-n2ncc3c(=O)n(CC(=O)N4CC(C)CC(C)C4)cnc32)cc1 (centres undefined)	/	-1.1
COc1cc2ccccc2cc1C(=O)N1CCCN(C)c2nc3ccccc3nc21	/	-0.85
CCOC(=O)c1cnn(-c2ccc(Cl)cc2)c1C(F)(F)F	-0.15	/
O=C(O)C(O)C(O)c1nc2cc3ccccc3cc2[nH]1 (centres undefined)	/	-0.1
O=C(O)C1CCN(C(=O)C(F)(F)F)CC1	-1	-1.1
O=c1c2ccccc2nc(SCc2ccon2)n1Cc1ccccc1	/	0.35
CC(C)C(O)(C#CCN1CCOCC1)C(C)C	0.005	-0.55
CCC1C(=O)C(C)(C)C(=O)OC1c1ccc(Cl)cc1 (centres undefined)	-0.21	1.1
CN(C(=O)c1ccn[nH]1)C1CC(C)(C)N(C)C(C)(C)C1	-0.23	-0.2
COc1ccccc1CN(Cc1cccs1)C(=O)C1CCCN1C(=O)c1cccs1 (centres undefined)	/	-1
Cc1ccc(-c2onc3ccc(Br)cc23)cc1	-0.83	2.5
COC(=O)c1c(C)c(=O)[nH]c2ccccc12	-0.24	-0.35
CCOc1cc(C2=NS(=O)(=O)c3ccccc3N2)cc(OCC)c1OCC	/	0.3
O=C(CCN1C(=O)c2ccccc2C1=O)NCc1ccco1	0.045	0.55
CN(C)CCNC(=O)c1ccc2c(c1)OCO2	0.39	-0.1

Some of the compounds tested, so the mix of outcomes need not match the whole.
